ugtP null kill = growth inhibition of ugtP-null S. aureus, primary screen, RN4220 ugtP deletion, OD600. growth inhibition, % (no concentration beside the values). 330,000 compounds, 0.54% hits. 16 h; some inactives read as strong as hits;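 active means z-score under -3 and OD600 up to 0.15 on both plates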;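 further: plate controls were untreated wells for no effect and antibiotic for full effect; wells of about 80 µL received 100 nL stock; the first replicate is given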
Mtb hypoxia inh = PubChem AID 1159583. M. tuberculosis hypoxia-regulated fluorescent reporter, fluorescence. fluorescence inhibition, % (no concentration beside the values). 300,000 compounds, 0.1% hits;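 active means 35 to 45% if threefold the growth effect, above 45% if 1.5-fold the growth effect; inactive means the rest, general growth blockers included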;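 further: wells of about 50 µL received 100 nL stock; 0% = vehicle wells and 100% = reference inhibitor wells; whole bacteria with a GFP reporter of the hypoxia response; strong numbers were not always called active; many hits fall short of the cut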
BJeLR viability = MLPCN primary cell-based screen for lethality selective to Ras in HRASV12 cells; BJeLR (HRASV12) viability, CellTiter-Glo ATP luminescence, 48 h; reference of the scale not given here; 300,000 compounds, 0.17% hits; inhibition, % (test concentration not listed); AID 1554, 2009;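 active means replicate mean above 50%; inconclusive means above 50% but judged a plate artefact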;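 further: 50 nL library stock added to about 25 µL; numbers are from one replicate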
Bead autofluor = compound fluorescence in toxin protease inhibitor counterscreen. compound autofluorescence counterscreen, microsphere flow cytometry; hits give high values. fluorescence intensity (test concentration not listed). 360,000 compounds, 3.1% hits. AID 624483;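 active means at least 3 SD above the mean of all compounds, about 16000 in these data; inconclusive means too few beads counted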;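 further: 100 nL of 1 mM stock went into each well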
PrP 5UTR inh = inhibition of PrP 5' UTR reporter expression; cell-based PrP 5' UTR mRNA reporter, plate reader; inhibition, % (test concentration not listed); 340,000 compounds, 0.35% hits;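 active means every replicate at 50% or more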;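 further: 0 = median of the neutral control wells; tested in H4 reporter cells; numbers are from one replicate; inactives centre near -14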
RN4220 kill = growth inhibition of S. aureus RN4220, primary screen, OD600; 16 h; inhibition, % (test concentration not listed); 330,000 compounds, 0.33% hits;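 active means z-score of -3 or lower and OD600 up to 0.18 on both plates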;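 further: plate controls were untreated cells for no effect and reference antibiotic for full effect; stock transfer was 100 nL into about 80 µL; one replicate is shown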
Mtb hypoxia inh growth = second read-out of Mtb hypoxia inh, no call of its own (marks repeat the call); growth inhibition, %; measured here: M. tuberculosis growth (absorbance);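 0% = vehicle and 100% = reference antibiotic; read after six days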
Numbers without * were called inactive; ? = inconclusive; · = no result given.

SMILES	ugtP null kill	Mtb hypoxia inh	Mtb hypoxia inh growth	BJeLR viability	Bead autofluor	PrP 5UTR inh	RN4220 kill
O=c1oc2ccccc2cc1-c1cn(-c2ccccc2)c(=S)[nH]1	44	9	2	30	2578	66*	3.5
O=C(COc1ccc(F)cc1)NCC1(N2CCOCC2)CCCCC1	-2	20	9	·	4074	-33	2.2
COc1ccccc1N(CC(=O)Nc1ccc(F)c(F)c1)S(C)(=O)=O	-3	9	4	14	8271	-20	-0.5
O=C(N/N=C/c1ccccn1)C1CC1	·	·	·	-4	9664	1	·
CCCCS(=O)(=O)N1CCC(C(=O)Oc2ccccc2OC)CC1	2	8	-3	6	·	9	7.0
CCn1ncc(/C=N\NC(=O)COc2ccccc2)c1C	·	·	·	3	2478	-1	·
O=C(Nc1ccc(Cl)c(S(=O)(=O)N2CCCCC2)c1)c1ccncc1	-11	-3	7	·	?	-34	-1.2
C/C(=N\NC(=S)NC1CCCCC1)c1ccc(C)o1	·	·	·	-2	4669	-23	·
COc1ccccc1N/C=C1/Sc2cc(Cl)ccc2NC1=O	-13	11	9	-1	·	·	-4.6
C/C(Cc1ccccc1)=N\NC(=O)CNC(=O)c1ccccc1Br	·	·	·	2	2427	-3	·
Cc1c(C)c2cc3c(C)coc3cc2oc1=O	8	-3	-3	6	2983	-19	4.6
Cc1ccn2cc(-c3ccc(NS(=O)(=O)c4ccccc4)cc3)nc2c1	·	·	·	-29	9878	-20	·
Nc1c(C(=O)NCc2ccc3c(c2)OCO3)nnn1-c1ccc(OC(F)(F)F)cc1	-4	-3	1	0	10876	-19	-4.4
Cc1ccc(OCC(=O)Nc2ccc3c(c2)nc(CCN2CCOCC2)n3C)cc1	3	12	19	0	?	-23	-0.1
CC(C)(C)C(=O)Nc1nnc(SCC(=O)NC2CCCC2)s1	15	10	2	-3	5721	-12	-0.9
CN1C(=O)[C@H]2[C@@H](C3CC3)N3C(=O)CN(Cc4ccc(-c5ccccc5)cc4)C(=O)[C@@]3(C)[C@H]2C1=O	·	·	·	-1	3748	-34	·
CC(NC(=O)C1CCC(CNC(=O)[C@@H]2Cc3ccccc3CN2)CC1)c1ccccc1 (stereo partly drawn)	1	4	10	2	5113	-21	2.0
COc1ccc(NC(=O)C=Cc2c(Cl)nc3ccccn23)cc1	-13	12	23	·	·	·	0.3
O=C1/C(=C/C=C/c2ccccc2)Oc2c1ccc(O)c2CN1CCN(CCO)CC1	4	14	11	9	4760	-25	3.2
COC(C[C@@H]1O[C@@H]1[C@@H](O)COCc1ccccc1)OC	·	·	·	-9	3991	44	·
COc1ccccc1C(=O)Nc1nnc(-c2ccccc2)s1	-23	-4	2	-13	·	-52	0.4
O=c1[nH]c(COc2ccc(Br)cc2Cl)nc2ccccc12	-1	6	1	-4	?	-88	-7.0
CC(=O)c1cc2c(ccc3ccccc32)oc1=O	9	17	0	1	4156	-22	3.7
CCc1cc(/C(Cc2ccccn2)=N\O)c(O)cc1O	·	·	·	-2	18010*	2	·
O=C(COC(=O)c1cc(-c2ccc(Cl)s2)nc2ccccc12)NCc1ccco1	-3	·	·	-4	2591	-19	-6.5
Nn1c(SCC(=O)Nc2ccc3c(c2)OCO3)nnc1C1CC1	1	3	4	3	8749	-3	1.9
CCCNc1nc2c(c(=O)[nH]c(=O)n2C)n1CCc1ccccc1	3	2	13	8	5654	10	-1.1
CC(C)CN(C(=O)CN(C)S(=O)(=O)c1ccc(Cl)cc1)C1CCS(=O)(=O)C1 (stereo not drawn)	7	2	5	1	6384	1	3.8
CC1CCCCC12NC(=O)N(CC(=O)Nc1cccnc1Cl)C2=O (stereo not drawn)	·	·	·	6	4325	-18	·
COC(=O)CCC(C)C1CCC2C3CCC4CC(O)CCC4(C)C3=CC(=O)C12C (stereo not drawn)	2	6	10	·	3543	-22	10
COc1ccccc1N1CCN(C(=O)CCN2C(=O)c3cccc4cccc(c34)C2=O)CC1	-4	0	-2	-4	4116	-23	4.2
CCOC(=O)CCC(=O)Nc1ccccc1C(N)=O	-3	-7	-1	-3	22534*	1	-1.5
Cc1ccc2oc3c(c(=O)c2c1)C(c1cccc(Cl)c1)N(CCCN1CCOCC1)C3=O (stereo not drawn)	9	6	5	1	6046	-16	2.7
O=C(CN1CCC(NC(=O)c2ccccc2F)CC1)Nc1ccc2c(c1)OCO2	4	2	2	-13	2115	-17	6.7
O=C(/C=C/c1ccccc1)N1CCCN(C(=O)/C=C/c2ccccc2)CC1	6	7	8	-10	20323*	1	25
CC(=NO)c1ccc2c(c1)OCCO2	8	4	6	·	·	·	3.8
CC(C)c1ccc(/C=N/NC(=O)c2cccc(S(=O)(=O)N3CCOCC3)c2)cc1	·	·	·	5	2771	-32	·
CCOCCCNC(=O)c1c(-c2ccccc2)noc1C	11	·	·	6	3501	-17	12
O=C(NCC1CCCO1)C1CCCN1C(=O)Nc1ccc(Cl)c(Cl)c1 (stereo not drawn)	0	3	20	4	4287	-28	-3.0
Cc1ccc(S(=O)(=O)N2CCC(C(=O)Nc3cccnc3)CC2)cc1	1	6	3	·	3747	-15	2.8
CCC(C(=O)NCCc1ccc(OC)cc1OC)n1nc(C)n2c(cc3occc32)c1=O (stereo not drawn)	2	-8	-4	11	4122	2	2.7
CCCCCN1CC(O)=C(c2nc(-c3ccc(Cl)cc3)cs2)C1=N	-13	1	-1	10	8073	-3	-4.2
CCn1c(SCC(=O)Nc2ccc(F)cc2)nc2ccccc2c1=O	0	-4	7	-3	3666	-16	3.3
CCN(CC(=O)NCc1ccc(F)cc1)CC(O)COCc1cccc(OC)c1 (stereo not drawn)	8	·	·	-5	3652	-12	11
Cc1ccc(/C(O)=C/C(=O)C(=O)NNC(=O)C(O)(c2ccccc2)c2ccccc2)cc1	60	2	-3	11	7628	-10	6.8
Cc1nc(CN2CCC(c3ccccc3)CC2)cc(=O)[nH]1	4	2	0	-4	4682	-18	-0.1
CSc1nccc(Oc2cncc(Cl)c2)n1	-16	0	3	5	2793	-11	-9.0
COc1ccccc1NC(=O)c1c([N+](=O)[O-])cnn1C	10	4	2	-3	3654	-60	2.0

Of the compounds above, 2 contain bromine:
SMILES	ugtP null kill	Mtb hypoxia inh	Mtb hypoxia inh growth	BJeLR viability	Bead autofluor	PrP 5UTR inh	RN4220 kill
C/C(Cc1ccccc1)=N\NC(=O)CNC(=O)c1ccccc1Br	·	·	·	2	2427	-3	·
O=c1[nH]c(COc2ccc(Br)cc2Cl)nc2ccccc12	-1	6	1	-4	?	-88	-7.0

The list continues.
SMILES	ugtP null kill	Mtb hypoxia inh	Mtb hypoxia inh growth	BJeLR viability	Bead autofluor	PrP 5UTR inh	RN4220 kill
CC(Oc1cccc(Cl)c1)C(=O)Nc1ccc(N2CCOCC2)cc1N1CCOCC1 (stereo not drawn)	5	-1	3	9	5569	-10	4.1
COc1cc(/C=C/C(=O)NC2CCCCC2)cc(OC)c1OC	3	-1	9	3	4058	4	0.6
O=C(CNC(=O)c1ccc(Br)cc1)NC1=NCCS1	9	4	2	10	3073	-7	3.7
c1ccc(-c2nn[nH]n2)nc1	1	5	3	-9	5602	-25	3.1
CCc1ccc(S(=O)(=O)Nc2c(C)nn(C)c2C)cc1	-4	6	11	-3	10741	-11	5.8
O=C(O)/C=C\C(=O)Nc1ccc(OCc2ccccc2)cc1	17	2	10	1	4152	-15	8.2
CSc1ccccc1NC(=O)CN1CCCCC1	7	15	11	-2	3458	-23	7.3
COc1cc(/C=c2/sc3nc(-c4ccccc4)c(-c4ccccc4)n3c2=O)cc(OC)c1OC	·	·	·	-1	2517	-3	·
COc1ccccc1NC(CC(=O)c1ccccc1)C(=O)OCC(=O)c1ccc(Br)cc1 (stereo not drawn)	19	4	5	4	9556	-40	1.5
CC(C)n1c(=O)[nH][nH]c1=S	5	9	9	-19	3665	·	2.9
CCc1ccc(NS(=O)(=O)c2cc3[nH]c(=O)c(=O)[nH]c3cc2C)cc1	2	-5	3	9	5192	-1	4.4
COCCn1c(SCC(=O)NC2CCCCC2)nnc1-c1ccco1	6	6	-4	-16	6383	-25	1.0
Cn1nc(C(=O)Nc2ccc(S(=O)(=O)N3CCCCC3)cc2)ccc1=O	2	6	1	7	3930	-64	-3.2
COc1cccc(NC(=O)CN(C)CC(=O)NC(C)c2ccccc2)c1 (stereo not drawn)	8	2	0	2	5991	-23	-1.0
COc1cc(NC(=O)c2cc3ccccc3o2)c(OC)cc1Br	·	·	·	5	2343	-13	·
CC(C)C(c1nnnn1Cc1cccs1)N1CCN(c2ccccc2)CC1 (stereo not drawn)	6	·	·	0	4243	-11	-0.2
O=C(NCc1cccnc1)c1cc(S(=O)(=O)N2CCOCC2)c(Cl)cc1Cl	2	10	10	-4	5033	-25	-1.5
Cc1cccc(NC(=O)CN2C(=O)/C(=C3\SC(=S)N(CC4CCCO4)C3=O)c3ccccc32)c1 (stereo not drawn)	10	-3	-2	7	5846	-15	4.2
Cn1c(=O)c2ncn(CC(=O)N=Nc3c(O)[nH]c4ccccc34)c2n(C)c1=O	-4	7	0	1	·	·	5.7
Cc1ccc(S(=O)(=O)N2CCCc3ccccc32)cc1C	8	14	3	-7	4310	-11	12
N=c1n(Cc2ccccc2)c2ccccc2n1CC(O)COc1ccccc1 (stereo not drawn)	-19	-5	14	8	6297	-2	-2.6
CN1CCN(C(=O)CCc2nc(-c3ccc(Cl)cc3)no2)CC1	4	-1	3	-9	3518	-19	10
CCOC(=O)C1=C(Cc2ccc(F)cc2)C(=O)c2ccccc2C1=O	6	3	-4	-12	23756*	-6	27
O=C(/C=C/c1ccccc1)NCc1ccc2c(c1)OCO2	3	5	6	-6	3937	-18	6.9
CN1CCN(Cc2c(C(=O)NN=Cc3cccc(Br)c3)nnn2-c2nonc2N)CC1	6	3	0	·	·	·	0.6
CCOc1ccc(N(CC(=O)NCc2cccs2)S(=O)(=O)c2c(C)noc2C)cc1	-5	·	·	-1	5740	-12	3.1
O=C(CN1CCN(Cc2ccccc2Cl)C1=O)NC1CCCCCCC1	-1	·	·	5	2502	-1	-2.7
NC(=O)C1CCN(C(=O)c2cc3n(n2)C(C(F)(F)F)CC(c2ccco2)N3)CC1 (stereo not drawn)	·	·	·	2	5697	-8	·
CCOC(=O)c1c(NC(=O)c2cc3n(n2)C(C(F)(F)F)CC(c2cccs2)N3)sc(C)c1C (stereo not drawn)	·	·	·	5	7697	-7	·
NS(=O)(=O)c1cc(C(=O)N=Nc2c(O)[nH]c3ccccc23)ccc1Cl	2	-17	7	9	4332	-11	7.5
Cc1nn(CC(=O)c2ccc(Cl)cc2Cl)c(C)[n+]1N	3	-6	-3	4	2416	-25	6.1
CC(=NNC(=O)c1ccc(F)cc1)c1ccc(NC(=O)Cc2ccccc2)cc1	-7	-4	11	·	·	·	-0.5
Cc1ccc2c(CSc3nc4nc(C)cc(C)n4n3)cc(=O)oc2c1	3	0	9	-1	3223	-13	6.6
Cc1nc2ccccc2n1CCOc1ccccc1	9	20	6	13	4313	-21	5.0
Cc1cccn2c(=O)c(C=NO)c(N3CCCCC3)nc12	-1	13	5	·	·	·	6.4
Cc1cccc(C)c1Nc1nnc(SCc2cc([N+](=O)[O-])cc3c2OCOC3)s1	-12	1	13	18	16667*	3	-1.1
COc1ccc(CNC(=O)C2CCC(CNc3nc(=S)[nH]c4ccccc34)CC2)cc1 (stereo not drawn)	-1	3	8	0	·	·	0.8
C=CCOC(=O)C1=C[C@@H](C2CCCCC2)C[C@@H](OCc2ccc(CO)cc2)O1	·	·	·	6	4293	-19	·
CC(=NNC(=O)CSc1nc2ccccc2s1)c1ccncc1	3	-3	-5	·	·	·	-1.8
CCOc1ccccc1N(C)C(=O)c1cn(CC)c(=O)c2cc(OC)c(OC)cc12	16	5	-3	17	3130	-9	0.0

Compounds shown so far containing a nitro group on carbon:
SMILES	ugtP null kill	Mtb hypoxia inh	Mtb hypoxia inh growth	BJeLR viability	Bead autofluor	PrP 5UTR inh	RN4220 kill
COc1ccccc1NC(=O)c1c([N+](=O)[O-])cnn1C	10	4	2	-3	3654	-60	2.0
Cc1cccc(C)c1Nc1nnc(SCc2cc([N+](=O)[O-])cc3c2OCOC3)s1	-12	1	13	18	16667*	3	-1.1

Compound activity from PubChem BioAssay.
